Assay outcomes from PubChem.
Calb biofilm kill – clotrimazole potentiators killing C. albicans biofilm, primary screen, 4-compound mixtures. inhibition, % at 7.6 µM. C. albicans biofilm persisters + clotrimazole, fluorescence viability; primary screen in compound mixtures of four per well. actives 0.02% (n = 120,000). AID 1242, 2008;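 active means inhibition above 30.3% in the primary screen of four-compound pools, then above 30% when the compound was retested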;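 further: compounds exposed to preformed 24 h biofilms for 48 h; the number belongs to the whole pool; some results filed as inactive read as strong as hits; inactives centre near 12; 0% = biofilm with clotrimazole alone and 100% = kill control; retested singly at about 60 µM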
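Assay system: C. albicans biofilms / Medium: RPMI/MOPS medium, pH 7.0 / Schedule: biofilm formation 24 h, compound exposure 48 h, 37 °C / Measured by: Alamar Blue fluorescence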
* = called active by the depositor. An excerpt; rates above refer to the full screens.

structure	Calb biofilm kill
Nc1nnc(SCC(=O)OCC(=O)Nc2ccc(Br)cc2)s1	4
COc1cc([N+](=O)[O-])cc(/C=N/NC(=O)c2cc(C)nc3ccccc23)c1O	18
COc1cccc(/C=C/C(=C2/C(=O)N(c3ccccc3)N=C2C)c2ccc(C)cc2)c1OC	15
Cc1nc(CSc2nnc(Nc3cccc(C)c3C)s2)cs1	15
Cc1ccc(NC(=O)CSc2nnc(-c3ccccn3)n2N)c(Br)c1	21
Cc1ccc(-c2c(C#N)c(N)nc3c2CCCC3)o1	6
CCN(CC)C(=O)CSc1nnc(NC(=O)CCc2ccccc2)s1	16
O=C(Nc1ccc(CN2CCCCC2)cc1)c1cccc(Br)c1	31
Cc1nn(-c2ccccc2)c2c1C(c1ccc(F)cc1)C(C#N)=C(N)O2 (centres undefined)	18
O=S(=O)(c1ccccc1)N1CCN=C1SCc1ccccc1Cl	9
Cc1cccn2c(=O)c(/C=C(\C#N)C(N)=O)c(N3CCN(Cc4ccc5c(c4)OCO5)CC3)nc12	24
CC(NC(=O)/C(C#N)=C/c1ccco1)c1ccccc1 (centres undefined)	9

structure	Calb biofilm kill
CCN1CCCC1CNCc1cccc(OC)c1OCc1ccc(F)cc1 (centres undefined)	-4
O=C(Cn1cc(S(=O)(=O)Cc2ccccc2)c2ccccc21)Nc1ccccc1	-1
Cc1c(NC(=O)CSCc2c(F)cccc2Cl)c(=O)n(-c2ccccc2)n1C	-7
O=[N+]([O-])CC(=Nc1ccc(F)cc1)N/N=C\c1oc(O)c2ccccc12	18
COCCNC(=O)C(=O)NNC(=O)COc1ccc(OC)cc1	21
O=C(N/N=C/c1cc(Cl)cc([N+](=O)[O-])c1O)c1cc(-c2ccccn2)nc2ccccc12	12
CCc1sc(C(=O)NCc2ccccc2)cc1C	-11
O=C(c1ccc(COCC(F)(F)F)o1)N1CCCC1	15
CNC(=O)c1oc(-c2ccccc2)nc1C	13
CCS(=O)(=O)c1ccc(O)c(NC(=O)COc2ccc(Br)cc2)c1	20
CCOC(=O)C1CCN(C(=O)Nc2cccc(OC)c2)CC1	33
Cc1ccc(CN2CCN(/N=C\C=C\c3ccccc3)CC2)cc1	25

structure	Calb biofilm kill
CN(Cc1ccno1)Cc1cn(Cc2ccccc2)nc1-c1ccc2c(c1)OCO2	-6
COc1ccc(/C=C/C(=O)NCc2ccccn2)cc1	-10
O=C(O)c1ccccc1-n1ncc2c1/C(=C/c1ccc(Cl)cc1)CC2	12
CC(Sc1ccc(Cl)cc1)C(=O)Nc1ccccc1-c1ccccc1 (centres undefined)	10
CCOC(=O)c1c(O)c(Cl)c(C)[nH]c1=O	7
C/C(=N/NC(=O)c1ccoc1C)c1ccc(N2CCOCC2)cc1	14
CCCOc1ccc(N2C(=O)CC(SCCc3nc4ccccc4[nH]3)C2=O)cc1 (centres undefined)	10
O=C(COC(=O)c1cccnc1Cl)NCc1cccs1	14
CC(Nc1oc(-c2ccco2)nc1C#N)c1ccccc1 (centres undefined)	14
CCOC(=O)c1c(NC(=O)Cn2nc(C(=O)O)c3ccccc3c2=O)sc(CC)c1C	5
CNc1nnc(-c2ccc(OC)cc2)s1	24
C=CCN(CC=C)CCOc1cccc(Oc2ccccc2)c1	17

structure	Calb biofilm kill
COC(=O)c1ccc(NC(=S)N2CCC(C(N)=O)CC2)cc1	14
Cc1ccccc1CSCCNC(=O)COc1ccc(Cl)cc1	8
Cc1ccc(Oc2ncccc2COC(=O)Nc2ccccc2C)cc1	26
CC12COC3(C(=O)Nc4ccc5ccccc5c4)CC1CCC32C (centres undefined)	-2
O=C(NNc1cccc(Cl)n1)Nc1cccc(C(F)(F)F)c1	6
CN1CCC(N(C)C(=O)COc2ccc(S(=O)(=O)N3CCOCC3)cc2)CC1	-6
Cn1nc(Oc2ncc(C(F)(F)F)cc2Cl)cc1C(F)(F)F	14
O=C(NCC(c1cccs1)N1CCOCC1)c1ccccc1NS(=O)(=O)c1cc([N+](=O)[O-])ccc1Cl (centres undefined)	-6
O=C(CN1C(=O)C2CCCCC2C1=O)OCn1nnc2ccccc2c1=O (centres undefined)	3
COc1ccc(NS(=O)(=O)c2ccc(NC(=O)C(CCSC)NC(N)=O)cc2)cc1 (centres undefined)	4
Cc1ccc(-c2nnc(Nc3ccc(C(N)=O)cc3)c3ccccc23)cc1S(=O)(=O)NCC1CCCO1 (centres undefined)	17
CCOc1cc([N+](=O)[O-])cc2c1C(=O)Nc1ccccc1O2	14

structure	Calb biofilm kill
C/C(N)=C(/C#N)C(=O)CSc1nn(-c2ccc(Cl)cc2)c(=S)s1	10
Nc1nonc1C(=O)N1CCCCC1	-3
COc1ccc(C(=O)C2CCCN(Cc3cn[nH]c3-c3ccccc3)C2)cc1OC (centres undefined)	7
CCC1=C2CC[C@H]3C(=O)N(c4ccccc4)C(=O)[C@H]3[C@H]2[C@@]2(C)C(=NCc3ccccc3)OC(=O)N2C1=O	21
CCN(CC)S(=O)(=O)c1cc(NC(=O)C(C)N2CCN(Cc3ccc4c(c3)OCO4)CC2)ccc1C (centres undefined)	17
O=C(c1ccc(Cl)cc1)C1CCCN(Cc2ccc(Oc3ncccn3)cc2)C1 (centres undefined)	12
CC(C)(C)c1ccccc1NC(=O)c1ccc2c(c1)SC1=NS(=O)(=O)CCN12	17
Cc1[nH]nc(SCC(=O)NC2CCCC2)c1[N+](=O)[O-]	22
Cc1cn(C2C=CC(CO)O2)c(=O)[nH]c1=O (centres undefined)	21
Cc1cc(C)c2oc(C(=O)Nc3ccc(S(=O)(=O)N4CCCC(C)C4)cc3)cc(=O)c2c1 (centres undefined)	8
O=C(NCCO)c1nc2ccccc2s1	12
C=CCNC(=S)NNC(=O)c1csc(CC)c1	12

structure	Calb biofilm kill
COc1ccc(-c2cc(C(=O)Nc3ccccc3N3CCOCC3)c3ccccc3n2)cc1OC	15
CCOc1ncccc1C(=O)NCc1ccccc1	11
CC(C)N(C(=O)Cn1c(Cl)nc2ccccc21)C(C)C	27
COc1ccc(N(C(=O)C2CSC(=O)C2)C(C(=O)NC(C)(C)C)c2ccncc2)cc1 (centres undefined)	10
NC(=O)CSc1nccn1Cc1ccc2c(c1)OCO2	13
CCn1c(/C=C/N(C(C)=O)c2ccccc2)[n+](CC)c2ccc(Cl)cc21	19
N/C(=N\OC(=O)COc1ccc(Cl)cc1Cl)c1ccccn1	3
COc1ccc(OCCC(=O)OCC(=O)NCCC2=CCCCC2)cc1	11
CCC(/C=C1\Sc2ccc(OC)cc2N1CC)=C\c1sc2ccc(OC)cc2[n+]1CCCS(=O)(=O)[O-]	14
CCOC(=O)c1cccc2c(=O)c(C(=O)c3ccc(Cl)cc3)c(C(=O)OC)[nH]c12	18
O=C(Nc1cc(Cl)cc(Cl)c1)N1CCCN(Cc2ccccc2)CC1	20
O=C(NC(=S)N1CCN(C/C=C/c2ccccc2)CC1)c1c(F)cccc1F	10

structure	Calb biofilm kill
Cn1c(=O)c2c(ncn2CC(=O)N2CCN(C(=O)c3ccco3)CC2)n(C)c1=O	24
Cc1ccc(-n2nnc(-c3ccnc4ccccc34)n2)cc1	11
O=c1ccn(Cc2ccc(F)cc2)c2ccnc(C(F)(F)F)c12	8
COc1ccc(OC)c2c1sc(=NC(=O)C1CC1)n2C	27
O=C(/C=C/c1ccccc1Cl)Nc1ccc2c(c1)C(=O)NC2=O	10
O=Cc1ccc(OCc2nnsc2Cl)cc1	8
O=C(c1cccc([N+](=O)[O-])c1)N1CCOCC1	22
Cc1ccc(CC(=O)NCC(c2ccco2)N(C)C)cc1C (centres undefined)	10
CN(C)/C=C/C(=O)/C=C/c1ccc(Cl)cc1Cl	8
CC(C)CNC(=O)CSc1nc(-c2cccs2)cc(C(F)(F)F)n1	8
Cc1cc(NC(=O)Nc2ccc(F)cc2F)n(C)n1	9
CCCCN(C(=O)CSc1nnc2ccccn12)c1c(N)n(Cc2ccccc2)c(=O)[nH]c1=O	14

2 of the compounds above, field by field.
> O=C(c1cccc([N+](=O)[O-])c1)N1CCOCC1
- Calb biofilm kill: 22

> Cc1ccc(CC(=O)NCC(c2ccco2)N(C)C)cc1C (centres undefined)
- Calb biofilm kill: 10

Next entries follow.
structure	Calb biofilm kill
COc1ccc(C(=O)N/N=C/c2sc(=O)n(Cc3cccc(C(=O)O)c3)c2Cl)cc1	9
C=CCNC(=O)c1cccc(NS(=O)(=O)c2ccc(Cl)cc2)c1	18
CC(C)(C)C(=O)OC/C(N)=N/OC(=O)c1ccccc1	18
O=C(CCCN1C(=O)/C(=C/c2cccs2)SC1=S)Nc1cccc(C(=O)O)c1	2
CCCNC(=O)CNC(=S)N(Cc1ccccc1F)C1CCCCC1	15
CCN(CC)C1CCN(c2nc3nonc3nc2NCCOC)C1 (centres undefined)	14
CC(C)CCN(N=O)[C@@H](Cc1ccccc1)CN(N=O)[C@@H](Cc1ccccc1)CN(C)N=O	22
CCCN1C(=O)/C(=C\c2ccncc2)SC1=Nc1ccccc1	11
CN(Cc1ccco1)C(=O)Cn1nc(-c2ccc(Cl)cc2)ccc1=O	19
CN1CCN(C2=NC(=O)/C(=C/c3cn[nH]c3-c3ccccc3)S2)CC1	26
CCN(CC)CCNCc1cc(Cl)c(OCC(=O)Nc2ccccc2)c(OC)c1	10
COc1cccc(NC(=O)CNC(=O)c2ccc([N+](=O)[O-])cc2)c1	22

structure	Calb biofilm kill
CC1CC(C)(C)NC(=S)N1CCCC(=O)Nc1ccc(Br)cc1 (centres undefined)	6
CCOc1ccc(/C=N/NC(=O)Nc2ccccc2)cc1	-3
O=C(/C=N/O)Nc1ccc2sc3ccccc3c2c1	10
O=C(N=c1ccn(-c2nc3ccccc3nc2NS(=O)(=O)c2ccc(Cl)cc2)cc1)c1ccccc1Cl	18
Cc1cccc(NC(=S)NCc2ccco2)c1C	-3
O=[N+]([O-])c1cc(S(=O)(=O)Nc2cccc(Cl)c2)ccc1N=Nc1c(O)[nH]c2ccccc12	9
COc1ccc(C(=O)NCC(=O)OCC(=O)N2CCN(S(=O)(=O)c3ccccc3)CC2)cc1	7
COc1cccc(/C=N/NC(=O)c2cc3cc([N+](=O)[O-])ccc3s2)c1O	9
CCNC(=S)N1CCc2cc(OC)c(OC)cc2C1COc1ccc(F)cc1 (centres undefined)	12
O=C(CN1CCN(Cc2ccccc2)CC1)Nc1ccccc1-c1ccccc1	14
COc1cc(S(=O)(=O)NCCOC23CC4CC(CC(C4)C2)C3)c(OC)cc1Cl	8
COc1cc(C)c(Cl)c(C)c1S(=O)(=O)NC1CC(C)(C)NC(C)(C)C1	7

Quoted at random: three compounds from above.
structure	Calb biofilm kill
CCOc1ccc(/C=N/NC(=O)Nc2ccccc2)cc1	-3
CCNC(=S)N1CCc2cc(OC)c(OC)cc2C1COc1ccc(F)cc1 (centres undefined)	12
COc1cc(S(=O)(=O)NCCOC23CC4CC(CC(C4)C2)C3)c(OC)cc1Cl	8

New compounds follow.
structure	Calb biofilm kill
CC(/C=N/n1c(-c2ccc(Cl)cc2)n[nH]c1=S)=C\c1ccco1	7
CC(=O)C1=C(O)C(=O)N(c2ccc(Br)cn2)C1c1ccc(F)cc1 (centres undefined)	7
C=CCNC(=S)Nc1nc2c(cc1C(=O)OCC)CCCC2	12
Cc1nc2ccccc2cc1C(=O)N/N=C/c1cccc([N+](=O)[O-])c1	12
O=C(c1ccccc1F)N1CCC(N2CCCCCC2)CC1	5
CC(=O)N1CCN(c2ccc(NC(=S)NC(=O)c3ccccc3)cc2)CC1	7
NS(=O)(=O)c1ccc(NC(=O)c2cc(-c3cccs3)nc3ccccc23)cc1	9
O=C(Nc1nnc(-c2ccc(Cl)cc2)o1)c1ccc(N2C(=O)CCC2=O)cc1	10
O=C(CSc1nc2[nH]ncc2c(=O)[nH]1)Nc1nccs1	5
Cn1c(N2CCOCC2)c(/C=N/O)c2ccccc21	0
O=C(/C=C/c1ccccc1)Nc1scc(-c2ccccc2)c1C(=O)O	18
COc1ccc2c(=O)c3c(=O)n(-c4ccccc4)c(-c4ccc(C)cc4)nc3oc2c1	17

The closing 2 compounds of the section before open the next one.
structure	Calb biofilm kill
O=C(/C=C/c1ccccc1)Nc1scc(-c2ccccc2)c1C(=O)O	18
COc1ccc2c(=O)c3c(=O)n(-c4ccccc4)c(-c4ccc(C)cc4)nc3oc2c1	17
Cc1ccnc(NC(=O)C2(c3cccs3)CCOCC2)c1	15
COc1ccccc1Nc1nc(N)nc(CSC(=S)N2CCCCC2)n1	22
Fc1cccc(CSc2nnc3ccc(-c4ccncc4)nn23)c1	12
O=C(/C=C/c1ccc(S(=O)(=O)NCc2ccco2)cc1)NCc1ccccc1Cl	10
Cn1ncc(Cl)c1C(=O)Nc1cccc(Cl)c1	-5
Nc1c(C(=O)N2CCCC2)sc2nc3c(cc12)CCCCCC3	7

Of the compounds above, 3 have a tert-butyl group:
structure	Calb biofilm kill
CC(C)(C)c1ccccc1NC(=O)c1ccc2c(c1)SC1=NS(=O)(=O)CCN12	17
COc1ccc(N(C(=O)C2CSC(=O)C2)C(C(=O)NC(C)(C)C)c2ccncc2)cc1 (centres undefined)	10
CC(C)(C)C(=O)OC/C(N)=N/OC(=O)c1ccccc1	18
